Compound activity from PubChem BioAssay.
CSC inhib: cancer stem cell viability inhibitors, primary screen, luminescence; cancer stem cell-like cells viability; inhibition, % at 7.5 µM; 300,000 compounds, 1.1% hits; AID 2717, 2010;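 active means mean at 75% or more and at least half the replicates too; inconclusive means mean and replicates disagree; tested in HMLE shEcad cells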;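 further: 0% = median of negative and 100% = median of positive control wells; the first replicate is given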
PABP FP inh: PABP poly(A) RNA binding inhibitors, primary screen, biochemical, fluorescence polarization, uHTS; 290,000 compounds, 1% hits; inhibition, % at 35 µM;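 active means 50% or more with normal probe brightness, or confirmed in later tests; inconclusive means above 50% with abnormal brightness, or retests that disagree; inactive means below 50% or failed in later tests; about a fifth of its hits are not listed in these tables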;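 further: calls also rest on retests at 20 µM and on dose response follow-up; controls were probe without protein and protein plus probe with vehicle; some compounds called inactive have numbers as strong as hits; many hits fall short of the cut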
MT1-MMP act inh: blockers of MT1-MMP proenzyme processing, primary screen, HT1080 RFP-PRO-GFP cells, GFP/RFP fluorescence; AID 651647, 2012; GFP/RFP ratio change, % at 20 µM; GFP/RFP ratio fluorescence, overnight; percent of plate control window, DMSO zero; Matrix metalloproteinase-14 (Homo sapiens), P50281; 360,000 compounds, 0.061% hits;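 active means GFP/RFP ratio change of at least 30% with cell ATP level not reduced by more than half and red fluorescence within 50% of control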; further: strong numbers were not always called active
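Material: RFP-PRO-GFP reporter HT1080 cells. Dosing: single-point 20 µM compound, 1% DMSO. Controls: DMSO and RFP-L50D-GFP cell wells. Timing: cells overnight before dosing, compound overnight, 37 °C, 5% CO2. Measure: GFP/RFP fluorescence ratio.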
UUG fidelity: modulators of yeast start codon fidelity, primary screen, whole organism, S. cerevisiae, single point, plate reader; AID 602363, 2012; activity score, % at 18.7 µM; 350,000 compounds, 0.13% hits; S. cerevisiae UUG-firefly luciferase reporter, luminescence/redox ratio;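 active means replicate mean at a twofold rise or more, about +100% in these data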;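 further: firefly luciferase made from a UUG start codon reports start codon fidelity; reporter light over untreated wells divided by growth signal over untreated wells; some hits fall short of that in this replicate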
eIF4H inh: human eIF4H binding inhibitors, primary screen, translation initiation inhibitor project, biochemical, uHTS, fluorescence polarization; Eukaryotic translation initiation factor 4H (Homo sapiens), Q15056; eIF4H fluorescence polarization binding assay; inhibition, % at 35 µM; 290,000 compounds, 0.94% hits; AID 2012, 2009;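 active means 50% or more with normal probe brightness, or confirmed in later tests; inconclusive means above 50% with abnormal brightness, or retests that disagree; inactive means below 50% or failed in later tests; about a fifth of its hits are not listed in these tables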;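 further: calls also rest on retests at 20 µM and on dose response follow-up; 0% = protein and probe with vehicle and 100% = probe without protein; strong numbers were not always called active; many hits fall short of the cut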
Rce1 inhib: yeast Rce1p protease inhibitors, primary screen, biochemical, fluorescence, cell-free homogeneous. CAAX prenyl protease 2 (Saccharomyces cerevisiae (strain ATCC 204508 / S288c)), Q03530. yeast membranes, quenched prenylated peptide cleavage fluorescence. calls only. 290,000 compounds, 0.27% hits. AID 2563, 2010;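 active means fall in fluorescence gain of 50% or more versus controls, with final raw signal at or below 3038400; inconclusive means same 50% fall but final raw signal above 3038400; inactive means fall in fluorescence gain under 50%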;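 further: plate controls were neutral control wells for no effect and wells lacking membranes for full effect; tested at 10 µM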
Target sequence (Q03530 whole entry, looked up): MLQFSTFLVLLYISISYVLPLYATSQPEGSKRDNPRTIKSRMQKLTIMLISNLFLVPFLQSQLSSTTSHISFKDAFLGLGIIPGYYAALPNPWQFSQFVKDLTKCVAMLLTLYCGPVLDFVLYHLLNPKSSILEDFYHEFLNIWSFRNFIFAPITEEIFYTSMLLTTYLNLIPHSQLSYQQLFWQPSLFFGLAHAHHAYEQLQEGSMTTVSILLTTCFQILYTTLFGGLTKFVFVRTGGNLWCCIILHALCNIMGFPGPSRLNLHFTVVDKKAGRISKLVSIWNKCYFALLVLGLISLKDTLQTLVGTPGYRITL
Env fusion inh: inhibitors of HIV-1 Env-driven cell-cell fusion, primary screen, HeLa-JRFL effector, CEM21 target cells, luciferase | inhibition, % at 12.3 µM | 360,000 compounds, 1.1% hits | AID 651610, 2012;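 active means mean replicate inhibition score of at least 50 and every replicate individually at or above 50; inconclusive means only one of the two criteria met; inactive means mean below 50 and not all replicates reaching 50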;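 further: 0% = plate neutral controls and 100% = maraviroc near 300 nM; one replicate is shown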
MT1-MMP act inh RFP: also measured in MT1-MMP act inh; calls as there; RFP signal change, %; measured here: RFP expression control read;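 0 = vehicle wells; hits needed this value within 50% of zero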
Starred values were filed as active, the others as inactive; i = inactive; u = inconclusive; x = not tested or not shown.

Sequence of screens – CSC inhib	PABP FP inh	MT1-MMP act inh	MT1-MMP act inh RFP	UUG fidelity	eIF4H inh	Rce1 inhib	Env fusion inh
#1 COc1ccc(C(=O)c2c(-c3cccc(C)c3)oc3ccc(N4CCOCC4)cc23)cn1
→ 14	-3	-2	-10	-11	-17	i	-8
#2 CCN(CC)S(=O)(=O)c1ccc(NC(=O)C(C)N(c2ccc(OC)cc2)S(C)(=O)=O)cc1 (stereo unspecified)
→ x	-11	2	1	10	8	i	1
#3 Clc1nc2sccn2c1/C=N/n1cnc2ccccc21
→ -6	-1	10	1	-10	-2	i	x
#4 O=C(Nc1ccc(N2CCN(Cc3ccccc3)CC2)cc1)c1ccccc1[N+](=O)[O-]
→ -18	-1	4	3	x	-4	i	6
#5 O=C1CN(CC(=O)N2CCCCC2)c2ccccc2O1
→ 6	1	-6	2	-20	4	i	x
#6 O=C(Nc1ccc(N2CCOCC2)cc1)C1CCCCN1S(=O)(=O)c1ccccc1 (stereo unspecified)
→ 5	5	0	-3	x	5	i	-7
#7 Cc1ccc(NC(=O)C2CCCN(S(=O)(=O)c3ccc(-n4cnnn4)cc3)C2)cc1 (stereo unspecified)
→ x	0	-5	-2	-8	-19	i	11
#8 NC(CCC(=O)NC(CS)C(=O)NCC(=O)O)C(=O)O (stereo unspecified)
→ x	x	-4	2	-5	x	x	-2
#9 CC1CN(C(=O)/C=C/c2ccc3c(c2)OCO3)CC(C)O1 (stereo unspecified)
→ -5	-6	4	4	-10	-4	i	-45
#10 CN(C)C(=O)C[n+]1ccc(/C=N/O)cc1
→ -10	-8	5	3	x	0	i	-18
#11 COc1cccc(CN2CCCC(C(=O)c3ccc4c(c3)OCO4)C2)c1O (stereo unspecified)
→ -8	-9	1	2	x	-13	i	3
#12 CCOc1cc(C2NC(=S)NC(C)=C2C(=O)Nc2ccc(OC)cc2)ccc1O (stereo unspecified)
→ -4	-8	3	4	-18	5	i	1
#13 O=C(O)c1cc2c(cc1NC(=O)c1ccccc1C(F)(F)F)OCCCO2
→ -13	6	4	1	-11	11	x	12
#14 CCOc1ccc(S(=O)(=O)N2CCCC(C(=O)NCc3ccccn3)C2)cc1C (stereo unspecified)
→ -8	5	7	-1	-19	-8	i	-2
#15 COC(=O)C1=C(C)N(CCc2ccccc2)C(=O)C1
→ 52	6	-6	3	-12	-3	x	x
#16 CCC1(CC)NC(=O)N(CC(=O)OCC(=O)NC(=O)c2ccc(Cl)cc2)C1=O
→ -17	4	-5	-5	x	-6	i	-8
#17 O=C1CCCC2=C1C(c1cccc(O)c1)c1c(ccc3ncccc13)N2 (stereo unspecified)
→ -23	-20	3	0	x	-11	i	6
#18 Cc1cccc(-n2c(=O)[nH]c3c(C(N)=O)nc(C(C)C)nc32)c1
→ x	-1	-3	-3	0	4	i	x
#19 CSc1ccc(CN2CCC(C(=O)NCc3ccc(C)cc3)CC2)cc1
→ 47	3	4	-1	x	0	i	0
#20 NC(=O)C1CCN(C(=O)c2cn(-c3ccccc3)nc2-c2cccnc2)CC1
→ -1	x	2	3	-13	x	i	x

Four entries from above, sorted by their value in Env fusion inh, low to high.
entry	compound	MT1-MMP act inh	MT1-MMP act inh RFP	UUG fidelity	Rce1 inhib	Env fusion inh
10	CN(C)C(=O)C[n+]1ccc(/C=N/O)cc1	5	3	x	i	-18
1	COc1ccc(C(=O)c2c(-c3cccc(C)c3)oc3ccc(N4CCOCC4)cc23)cn1	-2	-10	-11	i	-8
14	CCOc1ccc(S(=O)(=O)N2CCCC(C(=O)NCc3ccccn3)C2)cc1C (stereo unspecified)	7	-1	-19	i	-2
11	COc1cccc(CN2CCCC(C(=O)c3ccc4c(c3)OCO4)C2)c1O (stereo unspecified)	1	2	x	i	3

(next part)
Sequence of screens – CSC inhib	PABP FP inh	MT1-MMP act inh	MT1-MMP act inh RFP	UUG fidelity	eIF4H inh	Rce1 inhib	Env fusion inh
#21 Cn1nc(C(C)(C)C)cc1NC(=O)C1(C)CCN1C(=O)C1(c2ccccc2)CC1 (stereo unspecified)
→ x	x	2	-5	1	x	x	11
#22 Cc1cc(OCC(=O)NCc2ccccn2)c2c(C)c(Cc3ccccc3)c(=O)oc2c1
→ -1	-9	-1	-3	-6	-8	i	-3
#23 COc1ccccc1Nc1ccc(NC(=O)c2cccc([N+](=O)[O-])c2C)cc1
→ u	-4	4	-16	-9	-13	i	u
#24 COC(=O)[C@@]1(Cc2ccccc2)[C@H]2C(=O)N(C)C(=O)[C@H]2[C@H]2CN=C(SC)N21
→ x	x	2	4	-10	x	x	-1
#25 O=C(Nc1cccc([N+](=O)[O-])c1)c1ccc2ccccc2c1O
→ -1	6	-22	-40	-24	10	i	9
#26 CCc1c(C)c2cc(Cl)c(O)c(CN(CC)CC)c2oc1=O
→ -13	8	8	4	10	-14	u	x
#27 COc1cc(OC)cc(-c2c(C#Cc3ccsc3)c3cc(-c4cc(F)cc(F)c4)ccc3n2C)c1
→ -5	x	0	1	-47	x	x	0
#28 O=C1CSC(c2ccco2)N1 (stereo unspecified)
→ 9	7	2	7	-14	-9	i	x
#29 CC1(C)Nc2ccccc2C(=O)N1NS(=O)(=O)c1ccccc1
→ -7	-8	5	8	x	-6	i	16
#30 O=C(NC1CC1)c1ccc(S(=O)(=O)NCC2CCCCC2)cc1
→ x	0	2	-6	-14	4	x	x
#31 Cc1ccc(S(=O)(=O)NC(Cc2ccccc2)C(=O)O)cc1C (stereo unspecified)
→ -4	-4	-1	4	1	2	i	3
#32 Cc1cccc(N(C(=O)c2csnn2)C(C(=O)NCc2ccccc2)c2ccc(C)o2)c1 (stereo unspecified)
→ 6	-10	-6	0	-3	-5	i	5
#33 O=C(Nc1ccccc1Cl)NC1(C(=O)NCc2ccncc2)CCCCC1
→ 5	-7	-1	-1	-17	-5	i	5
#34 COc1ccc(/C=N/Nc2nc(-c3ccc(C)cc3)c(NC(C)=O)s2)cc1OC
→ 0	0	1	3	x	2	i	-1
#35 O=C(Nc1ccncc1)c1ccc2c(c1)C(=O)N(CC1CCCO1)C2=O (stereo unspecified)
→ 13	9	3	-1	-13	10	i	11
#36 Nc1nnnn1/N=C/c1ccco1
→ -5	-3	1	4	-24	0	i	-22
#37 Cc1cccc(NC2=Nc3ccccc3N3C2=Nc2c(c(C)nn2-c2ccccc2)C3c2ccc(O)c(O)c2)c1 (stereo unspecified)
→ 100*	7	-5	-1	x	38	i	x
#38 CCN(CC(=O)NC(C)(C)C)C(=O)CCl
→ -4	-4	5	9	-12	2	i	x
#39 O=C(/C=C/c1ccccc1)Oc1cccc2cccnc12
→ 2	4	2	3	4	-8	i	2
#40 C=C(C)CNC(=S)Nc1ccc(S(=O)(=O)Nc2cnc3ccccc3n2)cc1
→ x	3	1	-5	x	-1	i	-1

Results in MT1-MMP act inh RFP, for some of the entries so far:
no.	molecule	MT1-MMP act inh RFP
19	CSc1ccc(CN2CCC(C(=O)NCc3ccc(C)cc3)CC2)cc1	-1
20	NC(=O)C1CCN(C(=O)c2cn(-c3ccccc3)nc2-c2cccnc2)CC1	3
21	Cn1nc(C(C)(C)C)cc1NC(=O)C1(C)CCN1C(=O)C1(c2ccccc2)CC1 (stereo unspecified)	-5
22	Cc1cc(OCC(=O)NCc2ccccn2)c2c(C)c(Cc3ccccc3)c(=O)oc2c1	-3
23	COc1ccccc1Nc1ccc(NC(=O)c2cccc([N+](=O)[O-])c2C)cc1	-16
24	COC(=O)[C@@]1(Cc2ccccc2)[C@H]2C(=O)N(C)C(=O)[C@H]2[C@H]2CN=C(SC)N21	4
25	O=C(Nc1cccc([N+](=O)[O-])c1)c1ccc2ccccc2c1O	-40

(list continues)
Sequence of screens – CSC inhib	PABP FP inh	MT1-MMP act inh	MT1-MMP act inh RFP	UUG fidelity	eIF4H inh	Rce1 inhib	Env fusion inh
#41 COC(=O)N/N=C1/C/C(=N\NC(=O)OC)c2ccccc21
→ x	-6	1	11	-8	0	i	10
#42 CCCCSc1nc(C)cc(SCC(=O)N/N=C/c2cccc(OC)c2O)n1
→ u	-2	-8	-20	1	22	i	x
#43 CCc1ccc(NC(=O)c2noc3c2CCc2ccccc2-3)cc1
→ 10	-6	0	1	-7	-5	i	-87
#44 O=C(O)CCC(=O)N1CCc2cc(S(=O)(=O)N3CCC(Cc4ccccc4)CC3)ccc21
→ -7	10	5	2	6	5	i	8
#45 OCCC1CN(Cc2nc3c(s2)CCCC3)CCN1Cc1ccccc1 (stereo unspecified)
→ 7	7	1	2	-13	-6	i	5
#46 Cc1ccc(NC(=O)CSc2nnc(CCCCCNC(=O)OC(C)(C)C)o2)c(C)c1
→ -5	-8	-6	-9	-22	-4	i	x
#47 CCN(CCO)Cc1csc2cccc(Br)c12
→ -1	2	3	16	x	3	i	x
#48 Cc1ccc(C2=NN(CC(=O)NCCC(C)C)C(=O)CC2)cc1
→ -8	2	3	3	-18	1	i	27
#49 COc1cc(/C=C/C(=O)OCC(=O)NCc2ccco2)ccc1OCC#N
→ -9	6	3	5	x	6	i	-13
#50 Cc1ccc(N2CC(C(=O)NC3=NCCS3)CC2=O)cc1C (stereo unspecified)
→ 3	0	-1	1	-14	-5	i	x
#51 Cc1ccc2c(C)c(C(=O)N(Cc3ccc(N(C)C)cc3)C3CCS(=O)(=O)C3)oc2c1 (stereo unspecified)
→ x	3	-3	-8	3	-9	i	-23
#52 CCCN(CC(=O)Nc1ccccc1C)C(=O)c1ccc(Cl)c(S(=O)(=O)N2CCCC2)c1
→ -5	x	2	2	x	x	i	-6
#53 Cc1ccc(S(=O)(=O)Nc2c(C)n(C)n(-c3ccccc3)c2=O)cc1C(=O)OCC(=O)N1CCCC(C)C1 (stereo unspecified)
→ -21	-3	1	0	9	-6	i	-6
#54 Cc1cccc(NS(=O)(=O)c2c(C)noc2C)c1
→ -11	-10	1	2	x	-6	i	4
#55 CC(=O)c1cccc(NC(=O)Cc2ccc3c(c2)CCCC3)c1
→ x	7	2	-11	-9	2	i	15
#56 NNC(=O)Cn1c2ccccc2c2ccccc21
→ 0	1	4	3	-7	-10	i	7
#57 CCn1c(C(=O)NCc2cccnc2)cc2sc(Cl)cc21
→ -2	2	0	0	-1	-9	i	-3
#58 CC(=O)Nc1cccc(-c2cc(NC(C)=O)c3ncc(-c4ccccc4)n3c2)c1
→ x	x	1	5	0	x	x	8
#59 Cc1ccc([N+](=O)[O-])cc1NC(=O)c1cccs1
→ -5	1	0	1	x	-9	i	8
#60 Oc1cccc(Nc2ncnc3c2oc2ccccc23)c1
→ 40	2	-4	0	x	-8	i	-60
#61 Cn1c(N2CCOCC2)c(/C=N/OC(=O)c2ccc(F)cc2)c2ccccc21
→ 12	3	-5	-7	1	-5	i	59*
#62 Cc1ccc(S(=O)(=O)N2CCC(C(=O)N(C)C3CCS(=O)(=O)C3)CC2)cc1 (stereo unspecified)
→ 9	1	4	2	-11	-1	i	-29
#63 Cc1cc(O)cc(=O)n1C
→ -2	-2	-6	-1	x	-9	i	1
#64 Cc1cc(C(=O)N(Cc2nnc(-c3ccc(Cl)cc3)o2)C(C)C)c2ccccc2n1
→ 1	x	0	-2	-13	x	x	x
#65 COc1ccc(C)cc1NC(=O)CSc1nnc(CC(=O)Nc2cccc(C(F)(F)F)c2)n1C
→ x	10	-4	-8	-19	1	i	80*
